Screening results deposited in PubChem by Broad Institute.
T cruzi repl = inhibitors of intracellular T. cruzi growth, primary screen, luminescence, NIH3T3 host cells. inhibition, % (test concentration not listed). T. cruzi beta-gal in NIH3T3, 90 h. AID 1885, 2009. 300,000 tested, 1.4% active;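 active = mean inhibition across valid replicates above about 55%, limit read from the data; inconclusive = mean below that limit but half or more replicates reach it; inactive = mean below it, under half of replicates reach it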;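 note: signal also drops with host cell toxicity which is not excluded here; 0% = plate median of DMSO wells and 100% = zero luminescence signal; higher percent means less beta-gal luminescence so fewer parasites; stock transfer was 50 nL into about 50 µL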
RanGTP-Impb inh = inhibitors of RanGTP-importin-beta interaction, primary screen, biochemical, FRET, CFP-Ran, YFP-importin-beta, homogeneous. Ran GTPase (GTP-bound) - importin-beta complex. cell-free CFP-Ran/YFP-importin-beta FRET ratio. inhibition, % (test concentration not listed). 300,000 tested, 1.1% active. AID 2216, 2009;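 active = most replicates above 15%; inconclusive = exactly half above 15%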;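 note: 0% = DMSO wells and 100% = Ran loaded with GDP instead of GTP; wells of about 40 µL received 100 nL stock; the first replicate is given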
FGF22 binding = binders of human FGF22 protein, primary screen, FGF22 synaptogenesis inhibitor project, biophysical, thermal shift, single point; calls only at 9.99 µM; recombinant FGF22 thermal shift, SYPRO orange fluorescence; percent of sucrose octasulfate shift, DMSO zero; 340,000 tested, 1.5% active; Fibroblast growth factor 22 (Homo sapiens), Q9HCT0; AID 651658, 2012;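 active = melting point raised past a set limit in the mean and every replicate; inconclusive = no clear call; three in four hits are not shown here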
Target sequence (Q9HCT0 whole entry, looked up): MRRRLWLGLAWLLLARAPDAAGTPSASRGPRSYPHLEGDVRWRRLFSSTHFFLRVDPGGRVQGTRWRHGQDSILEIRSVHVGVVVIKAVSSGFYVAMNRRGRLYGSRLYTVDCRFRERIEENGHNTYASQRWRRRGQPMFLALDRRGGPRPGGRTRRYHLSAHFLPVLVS
ALR H2O2 inh = inhibitors of human ALR sulfhydryl oxidase, primary screen, biochemical, H2O2 detection, HRP-luminol luminescence, single point | inhibition, % (no concentration beside the values) | AID 485317, 2010 | FAD-linked sulfhydryl oxidase ALR (Homo sapiens), P55789 | purified ALR, DTT oxidation | 290,000 tested, 3.8% active;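 active = mean and each replicate at 75% or more; inconclusive = only one of the two met; inactive = neither met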;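 note: stock transfer was 7.5 nL into about 7.5 µL; 0% = neutral wells and 100% = wells with inactivated enzyme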
Target sequence (P55789 whole entry, looked up): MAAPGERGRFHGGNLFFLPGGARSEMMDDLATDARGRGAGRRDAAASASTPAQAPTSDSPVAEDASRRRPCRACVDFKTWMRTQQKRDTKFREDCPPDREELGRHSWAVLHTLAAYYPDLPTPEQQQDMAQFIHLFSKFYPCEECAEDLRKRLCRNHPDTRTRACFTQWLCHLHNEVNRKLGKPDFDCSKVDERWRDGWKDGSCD
Calb FLC = C. albicans growth inhibition with fluconazole, primary screen, CaCi-2 strain, Alamar Blue fluorescence; C. albicans CaCi-2 (fluconazole-resistant clinical isolate) + fluconazole, 48 h; growth inhibition, % (concentration not given with the values); 300,000 tested, 0.57% active; AID 1979, 2009;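 active = most replicates above 75%; inconclusive = exactly half above 75%; inactive = most below 75%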;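 note: all wells also contain fluconazole at 8 µg/ml as a sub-toxic cotreatment; 0% = median of DMSO wells and 100% = median of geldanamycin control wells; wells of about 8 µL received 7.5 nL stock; the first replicate is given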
AF4-AF9 inh = inhibitors of AF4 peptide binding to AF9, primary screen, biochemical, AlphaScreen, biotin-AF4 peptide, FLAG-AF9, single point; Protein AF-9 (Homo sapiens), P42568; inhibition, % at 10 µM; 350,000 tested, 0.47% active; AID 651704, 2012;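 active = every replicate reaching a set inhibition limit, whatever the replicate mean, cut at about 25% in these data; inconclusive = mean inhibition reaches that limit but some replicates miss it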;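 note: 0% = plate neutral control median and 100% = total signal loss; the record names both 10 and 1 µM as test concentration; the first replicate is given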
Target sequence (P42568 whole entry, looked up): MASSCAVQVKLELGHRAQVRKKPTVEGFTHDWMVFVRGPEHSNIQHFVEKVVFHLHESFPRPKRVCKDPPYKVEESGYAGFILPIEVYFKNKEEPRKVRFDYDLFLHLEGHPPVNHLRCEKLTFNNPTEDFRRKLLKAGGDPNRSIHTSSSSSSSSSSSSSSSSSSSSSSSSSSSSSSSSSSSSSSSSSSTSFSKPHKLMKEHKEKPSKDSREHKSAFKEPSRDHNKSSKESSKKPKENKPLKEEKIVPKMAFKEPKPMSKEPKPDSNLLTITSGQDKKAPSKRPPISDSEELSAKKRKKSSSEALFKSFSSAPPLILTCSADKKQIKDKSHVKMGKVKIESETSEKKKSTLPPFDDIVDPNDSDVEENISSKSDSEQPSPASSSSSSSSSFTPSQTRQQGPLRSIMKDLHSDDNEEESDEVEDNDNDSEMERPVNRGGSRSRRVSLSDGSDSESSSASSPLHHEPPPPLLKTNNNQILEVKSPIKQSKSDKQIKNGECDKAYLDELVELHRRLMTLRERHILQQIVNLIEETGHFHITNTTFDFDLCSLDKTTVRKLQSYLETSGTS
Beta apoptosis = inhibitors of cytokine-induced beta cell apoptosis, primary screen, luminescence. INS-1E cytokine-induced death, ATP luminescence, 48 h; percent of positive-control rescue, neutral wells zero. protection from apoptosis, % (concentration not given with the values). 300,000 tested, 0.8% active. AID 435005, 2010;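 active = all replicates at 75% or more, or half of them and the mean; inconclusive = half reach 75% but not the mean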;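 note: 0% = cytokine-treated negative control wells and 100% = positive control rescue; higher means more ATP so stronger rescue from cytokine killing; wells of about 40 µL received 100 nL stock; the first replicate is given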
rRNA inh HTS = reduced GFP signal of wild-type E. coli, primary screen, bacterial rRNA inhibitor project, GFP/RFP fluorescence, OD600, single point; GFP signal change (wild-type ribosome), % (concentration not given with the values); E. coli WT GFP vs humanized-ribosome RFP mutants, 24 h; active compounds read low; DMSO median 0, no signal -100; AID 720706, 2013; 350,000 tested, 1.6% active;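 active = significant combined selectivity score with lowered wild-type GFP, culture density cut under 30%, mutant RFP and density less affected; inactive = any of these conditions unmet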; note: one replicate is shown; some compounds called inactive have numbers as strong as hits
rRNA inh HTS OD600 = also measured in rRNA inh HTS; calls as there; OD600 change, %; measured here: OD600 growth;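 optical density of the mix in the first replicate; 0 = DMSO median and -100 = no signal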
rRNA inh HTS RFP = also measured in rRNA inh HTS; calls as there; RFP signal change, %; measured here: RFP humanized mutant strains;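 first replicate; 0 = DMSO median and -100 = no signal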
Active calls of the source: *; i = inactive; ? = inconclusive; / = not tested or not shown.

SMILES	T cruzi repl	RanGTP-Impb inh	FGF22 binding	ALR H2O2 inh	Calb FLC	AF4-AF9 inh	Beta apoptosis	rRNA inh HTS	rRNA inh HTS OD600	rRNA inh HTS RFP
CCN1C(=O)[C@H]2[C@@H](c3ccc(-c4ccc(F)cc4)c(OC)c3)N3CCC[C@@]3(C(=O)OC)[C@H]2C1=O	-17	-5.7	i	4	15	-3.7	-12	0	-6	-6.2
O=C1NCCC/C1=N/Nc1ccc(F)cc1	3	-1.8	i	-21	-37	-3.8	-7	14	15	1.7
S=c1[nH]c2ccccc2n1Cc1ccccc1	-11	4.1	i	75	-3	-11	-3	-17	-22	-4.5
Cc1nc2sc(C(c3ccco3)N3CCC(Cc4ccccc4)CC3)c(O)n2n1 (stereo not drawn)	0	5.2	i	2	-2	7.6	25	-1	12	1.0
CCOc1ccccc1-n1c(SCC(=O)Nc2nccs2)nnc1-c1ccoc1C	12	-4.0	/	-1	-2	/	0	/	/	/
Cc1cc(C(=O)COC(=O)C2=NNC(=O)CC2)c(C)n1-c1ccccc1	4	1.1	i	/	-14	?	/	8	4	0.2
CCOc1ccc(NC(=O)CSc2ccc3nnc(-c4cccnc4)n3n2)cc1	4	3.8	i	-11	-3	0.8	-3	8	17	-0.7
COc1ccc(CCc2nnc(CCC(=O)N(C)Cc3ccnc4ccccc34)o2)cc1	5	/	/	1	7	/	3	/	/	/
COc1ccc(CN2CCN(C(=O)C3CCC(CNS(=O)(=O)c4ccc(C)cc4)CC3)CC2)c(OC)c1OC (stereo not drawn)	57*	0.6	i	/	1	2.5	9	-14	-23	30
COc1ccc(N(CC(=O)Nc2cccc(C(C)=O)c2)S(=O)(=O)c2ccc(NC(C)=O)cc2)cc1	-12	-0.3	i	0	2	-1.7	1	-22	-14	1.5
CCC1(c2ccccc2)NC(=O)N(CC(=O)Nc2ccc(N3CCOCC3)cc2)C1=O (stereo not drawn)	/	/	i	19	/	2.9	-3	6	8	2.6
CCOC(=O)COc1cc(N2C(=O)CSCC2=O)c(Cl)cc1Cl	-5	1.4	/	1	-4	/	-8	/	/	/
N=C1SCC(=O)N1c1ccc(Cl)cc1	-16	2.2	i	41	-5	-9.6	/	-6	-3	-5.0
C/C=C(\C)CN1CCN(c2ccccc2F)CC1	5	4.9	/	-1	1	/	3	/	/	/
CC(CC#CCN1CCOCC1)OCCC#N (stereo not drawn)	2	-0.1	/	-3	1	/	-4	/	/	/
Cn1ncc(Cl)c1C(=O)N1CCOCC1	-6	5.0	i	-8	-8	-2.8	0	19	10	1.1
COCCOc1cc(NC(=O)c2cccc(OC)c2)c(Cl)cc1Cl	19	4.6	i	-2	20	-3.0	1	3	8	-3.2
O=C(NC1(C(F)(F)F)N=C2SCCN2C1=O)c1ccco1 (stereo not drawn)	5	0.6	/	-7	-2	/	-3	/	/	/
Cc1cccc(NC(=O)CCN2C(=O)c3ccccc3C2=O)n1	-14	-5.2	/	-11	16	/	-9	/	/	/
COc1ccc(Cl)cc1NC(=O)CNC(c1ccccc1)c1ccccc1	20	-0.4	i	0	1	-1.4	1	-1	-6	1.3
COc1cc(OC)c(OC)cc1CN1CCN(Cc2ccc(C(F)(F)F)cc2)CC1	29	-0.5	i	-6	-4	7.9	/	6	2	1.5
CCc1ccc(C(=O)C(C)OC(=O)CNS(=O)(=O)c2ccc(C)cc2)cc1 (stereo not drawn)	0	1.0	i	-4	2	-1.7	-6	0	-2	3.0
CN(C)c1ccc(C(C(=O)NCC2CCCO2)N(Cc2ccco2)C(=O)c2snc(C(N)=O)c2N)cc1 (stereo not drawn)	-5	1.2	i	/	2	4.1	13	7	24	0.0
COCCCNC(=O)c1ccccc1Oc1ccccc1	-2	0.4	/	98*	-5	/	-2	/	/	/
COc1ccc(-c2cn3ccc(C)cc3n2)cc1	-4	-2.8	i	52	-3	3.1	21	14	15	1.1
CC(c1ccco1)N(C(=O)Nc1ccccc1)C1CCCCC1 (stereo not drawn)	-6	-0.1	/	-2	-7	/	1	/	/	/
CCc1nnc(NS(=O)(=O)c2ccc(NC(=O)COc3ccc(Cl)c(C)c3)cc2)s1	-4	-1.9	i	1	-17	-1.5	-6	4	-1	-2.4
CCC(=O)Nc1ccc(C(=O)NNC(=O)COc2cccc(C)c2)cc1	-13	5.2	i	-6	18	-3.1	4	-34	6	20
Cc1cc(NC(=O)CN2CCN(Cc3ccccc3)CC2)nc2c1c(=O)oc1ccccc12	16	2.8	/	3	9	/	/	/	/	/
CCOC(=O)c1cc(C(=O)OCC)cc(-n2cc(O)c(C(=O)OCC)n2)c1	-2	4.3	i	11	4	-0.5	6	1	5	0.5
COc1ccc(OCC#CCNC(C)(C)C)cc1	13	4.2	/	-4	6	/	-3	/	/	/
CCOc1ccc(NC(=S)N2CCn3c(nc4ccccc43)C2)cc1	16	-0.2	/	-1	?	/	5	/	/	/
CC(C)CNC(=S)NC1CC2CCC(C1)N2Cc1ccccc1 (stereo not drawn)	-2	?	/	8	-32	/	-7	/	/	/
NS(=O)(=O)c1ccc(NC(=O)CSc2nc3c(c(=O)[nH]2)CCCC3)cc1	0	1.2	i	25	-2	-9.7	4	4	7	-2.1
CN(C)CCNC(=O)c1cc2c(s1)-c1ccccc1OC2	8	1.6	i	/	9	-3.7	-10	-3	-5	-1.0
CC(OC(=O)Cn1cnc2c1c(=O)n(C)c(=O)n2C)C(=O)NC(C)c1ccc(Cl)cc1Cl (stereo not drawn)	-10	1.0	i	0	1	-16	0	-1	-2	-1.1
COc1cccc(NC(=O)CN2C(=O)NC(CCc3ccccc3)C2=O)c1 (stereo not drawn)	/	/	i	2	/	-1.2	-2	/	/	/
COc1cc(-c2ccccc2)nc(N)n1	-6	-0.9	i	-3	-1	8.4	4	1	-3	-10
CCOc1ccc2nc(NC(=O)CN3CCOCC3)sc2c1	3	-3.6	/	-5	5	-1.8	-1	-4	6	-0.8
COc1ccc2cc(C(=O)/C=C/c3cc(OC)c(OC)c(OC)c3)ccc2c1	3	-14	i	/	6	5.8	-6	-2	-14	3.5
CCCCN(CCCNC(=O)C1CCN(S(=O)(=O)N2CCOCC2)CC1)c1ccccc1	-1	5.5	/	99*	?	/	-1	-3	-14	2.5
CC1CN(C(=O)CCn2c(=O)oc3ccccc32)CC(C)O1 (stereo not drawn)	8	-3.2	/	-3	-1	/	-3	/	/	/
Cn1c(C(=O)NCc2cccnc2)cc2sccc21	0	0.0	i	6	32	1.1	-1	2	5	-6.0
CCOc1ccc(CN2CCCC(CNC(=O)c3ccc(F)cc3)C2)cc1CO (stereo not drawn)	62*	-1.7	i	-17	-12	1.8	-17	13	8	1.3
FC(F)(F)c1cc(-c2ccco2)nc(NCc2cccs2)n1	22	4.9	/	?	31	/	/	/	/	/
CCN(CCCNC(=O)C1CCN(S(=O)(=O)N2CCOCC2)CC1)c1cccc(C)c1	6	-4.4	/	99*	4	/	1	/	/	/
CC(C)OCCCN1CC(=O)N2C(c3ccccc3)c3[nH]c4ccccc4c3C[C@H]2C1=O (stereo partly drawn)	3	?	i	-12	29	4.5	-1	-11	-10	0.7
CC(C)NC(=O)CC(=O)N/N=C/c1c(F)cccc1Cl	-2	/	i	3	-5	1.4	0	15	6	-2.5
CCOc1ccc(C(=O)NNC(=O)CN2C(=O)C3CC=CCC3C2=O)cc1OC (stereo not drawn)	/	/	i	-2	/	-17	-1	8	10	-1.7
Cc1oc(-c2cccc(F)c2)nc1CN1CCCCC1CCc1ccccn1 (stereo not drawn)	?	1.3	i	-2	-8	2.9	9	2	2	-0.4
Cc1cccnc1NC(=O)C1CCN(S(=O)(=O)c2ccc3ccccc3c2)CC1	-2	-2.1	i	-14	-1	0.5	-4	-6	-2	2.0
COc1ccc(NC(=O)CNc2ccccc2C(C)=O)cc1S(=O)(=O)N1CCOCC1	/	/	i	/	/	3.0	5	-3	-2	-0.2
COCCOC(=O)c1[nH]c2c(c1C)C(=O)CC(c1cccs1)C2 (stereo not drawn)	8	-2.6	i	/	0	2.3	/	-6	-12	-2.6
COc1ccc(N2CCN(c3cc(C)c4ccc(O)cc4n3)CC2)cc1	4	9.5	i	/	3	-2.7	-1	-8	-20	5.5
CC(C)C[C@H](N)c1cn([C@@H](CCCCN)C(=O)N2CCNCC2)nn1	-19	?	i	2	-3	16	-1	3	6	-1.6
Cn1nc(C(F)(F)F)cc1-c1ccc(/C=C(\C#N)C(=O)c2cccc(C(F)(F)F)c2)s1	1	6.4	i	1	3	-11	1	13	1	10.0
Cc1ccc(NC(=O)CN(C(=O)N2CCN(C)CC2)S(=O)(=O)c2ccc(C)cc2)cc1	1	-0.3	i	-4	3	-0.6	-3	5	9	-3.9
Cc1ccc(OCC(O)CN2CC3(C)CC2CC(C)(C)C3)cc1 (stereo not drawn)	-11	-1.7	i	/	-4	0.6	0	13	-9	1.2
Cc1ccc(CNC(=O)CNC(=S)N(Cc2ccccc2)Cc2cccnc2)cc1	51	1.0	i	-9	14	-1.0	1	-20	-11	16
O=C(CSc1ccc2c(c1)OCCO2)Nc1ccc(N2CCOCC2)cc1	-7	8.1	i	1	-5	1.1	2	16	11	1.4

Some values from the list:
Entry for `CC(C)NC(=O)CC(=O)N/N=C/c1c(F)cccc1Cl` under rRNA inh HTS OD600: 6
Entry for `Cc1ccc(CNC(=O)CNC(=S)N(Cc2ccccc2)Cc2cccnc2)cc1` under rRNA inh HTS RFP: 16

(list continues)
SMILES	T cruzi repl	RanGTP-Impb inh	FGF22 binding	ALR H2O2 inh	Calb FLC	AF4-AF9 inh	Beta apoptosis	rRNA inh HTS	rRNA inh HTS OD600	rRNA inh HTS RFP
CC1Cc2ccccc2N1C(=O)CNCCCN(C)C (stereo not drawn)	15	-2.8	/	/	-3	/	-4	/	/	/
CCOc1cc(C(=O)Nc2ccccc2N2CCN(S(C)(=O)=O)CC2)cc(OCC)c1OCC	0	-2.6	/	1	?	/	-13	/	/	/
CC(C)(C)C(=O)c1cn(CC(=O)O)c2ccccc12	-8	-1.6	i	-4	-4	-1.5	-5	7	2	0.1
O=C(CSc1n[nH]c(-c2ccccc2)n1)NC(=O)NCc1ccco1	-14	-0.6	i	-4	-4	-5.5	0	0	1	4.3
O=C(CSc1ccc(F)cc1)NCCSc1ccccc1	17	0.9	i	-11	6	-2.7	-3	-38	-42	-5.1
O=C(COC(=O)CNC(=O)c1ccccc1F)NCCNC(=O)COC(=O)CNC(=O)c1ccccc1F	-5	5.1	i	1	11	-15	-3	-1	-2	0.3

These rows are one share of the data; count on the stated rates, not on these rows.
